Screening data from PubChem BioAssay.
CtBP-E1A inh – qHTS Assay for Inhibitors of the CtBP/E1A Interaction | CtBP / adenovirus E1A interaction (AlphaScreen) | AlphaScreen GST-E1A/His-CtBP binding, 1536-well; stronger effect = lower value; control for the full effect not named in the record | activity change, % (no concentration beside the values) | 340,000 tested, 0.49% active; in the data active means activity change below about -65%; inconclusive means about -30% to -65%; inactive means above about -30%; further: on the % scale 0 is the no-effect control and ±100 the full control effect; compound concentration not given in the record
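Protein mix (5X: 125 nM each GST-E1A, His-CtBP) was incubated with pinned compound 2 h at 37 deg C in dark, in 50 mM Tris pH 8.0 buffer with 300 mM NaCl. Glutathione donor and nickel acceptor beads followed; AlphaScreen signal read after 1 h.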
gsp antagonist – qHTS for Antagonists of gsp, the Etiologic Mutation Responsible for Fibrous Dysplasia/McCune-Albright Syndrome: qHTS. gsp-mutant cells, cAMP HTRF, 30 min; control for the full effect not named in the record. Potency, µM (doses to about 76.9 µM), for inactives: top-dose activity change, negative = inhibition, usual class: inhibitors. 340,000 tested, 0.4% active; active = falling curve of any shape with a large fitted effect; inconclusive = falling curve, mostly with a smaller effect; inactive = flat or rising curve; cell line not stated here;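 further: intracellular cAMP measured with PDE inhibitor Ro 20-1724 present during compound exposure; potency means the concentration at half of the fitted maximal effect; on the % scale 0 is the no-effect control and ±100 the full control effect; nearly all actives have a fitted effect of over 65% in size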
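Measurement of cellular cAMP by homogeneous time-resolved fluorescence following a 30 min compound exposure at 37C. The PDE inhibitor […] was present throughout; the assay buffer was DPBS with 0.05% BSA and 0.005% Tween 20.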
Sfp inh – qHTS Assay for Inhibitors of Bacillus subtilis Sfp phosphopantetheinyl transferase (PPTase). 310,000 tested, 3.5% active. Biochemical Sfp PPTase activity, qHTS. 4'-phosphopantetheinyl transferase ffp (Bacillus subtilis), Q9F4F7. Potency, µM, for inactives: max response, negative = inhibition, usual class: inhibitors; active means well fitted inhibition curve with a large enough effect; inconclusive means small, poorly fitted or top-dose-only effect, or another doubt; inactive means no such curve, though single readings can be large or run the other way;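 further: the enzyme is Sfp with the accession as filed and its product quenches rhodamine fluorescence; potency means the concentration at half of the fitted maximal effect; 0% = enzyme reaction without inhibitor and -100% = no enzyme wells; top concentration of the series not given in the record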
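Fluorescence-quenching assay: 15 nM Sfp-PPTase preincubated 15 min at room temperature with compound, then 5 uM rhodamine-CoA and 12.5 uM BHQ-2-labelled YbbR peptide added. Fluorescence (ex 525/em 598 nm) read at start and after 30 min; difference gives rate.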
ClpP mod – qHTS Assay for Activators of ClpP | ATP-dependent Clp protease proteolytic subunit (Bacillus subtilis (strain 168)), P80244 | purified B. subtilis ClpP, FRET peptide cleavage, 20 min | 340,000 tested, 1.9% active | Potency, µM (top dose mostly 57.5 µM), for the others: at the highest dose activity change, negative = active | AID 651965, 2013; active = well fitted falling curve with a large enough effect; inconclusive = small, poorly fitted or top-dose-only effect; inactive = no such curve, though single readings can be large or run the other way; further: potency means the concentration at half of the fitted maximal effect; the source files actives as falling curves though it sought activators and does not explain the sign; nearly all actives have a fitted effect of over 65% in size; many hits overshoot -100%
Target sequence (P80244 whole entry, looked up): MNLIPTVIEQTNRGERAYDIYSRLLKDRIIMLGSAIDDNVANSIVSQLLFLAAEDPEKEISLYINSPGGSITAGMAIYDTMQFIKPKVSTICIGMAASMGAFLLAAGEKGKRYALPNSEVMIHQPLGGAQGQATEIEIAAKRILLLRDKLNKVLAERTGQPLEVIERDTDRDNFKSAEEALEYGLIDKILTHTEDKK
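ClpP 10 microg/mL final, pH 8 Tris/KCl buffer with BSA, glycerol, Tween-20; compound pinned in; FRET-FV substrate; RT 20 min; Ex320/Em430; ΔFRET vs ADEP 5.8 microM, DMSO, no enzyme.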
Menin-MLL FL inh – qHTS Assay for Inhibitors Targeting the Menin-MLL Interaction in MLL Related Leukemias: Competition With Fluorescein Labeled MLL-derived Peptide; Fluorescence polarization, fluorescein-MLL peptide displacement from menin; FP activity change, % at 61.4 µM; 290,000 tested, under 10 active; inconclusive = falling polarisation curve, or a change in total fluorescence; inactive = total fluorescence flat and polarisation flat or rising; no compound was filed as active; the % refers to the polarisation; negative = inhibition;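 further: % of control where 0% means no effect; inhibitors lower the polarisation; unlabelled MLL peptide was the positive control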
gsp ag – qHTS for Agonist of gsp, the Etiologic Mutation Responsible for Fibrous Dysplasia/McCune-Albright Syndrome: qHTS | Potency, µM (series often up to 76.9 µM), without a hit: at the top dose activation (cAMP increase), actives largely listed as activators | 340,000 tested, 0.13% active | gsp mutant cells, cAMP HTRF, 30 min; control for the full effect not named in the record; active = well fitted activation curve with a large enough effect; inconclusive = small, poorly fitted or top-dose-only effect, or another doubt; inactive = no such curve, though single readings can be large or run the other way; cell line not stated here;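 further: phosphodiesterase inhibitor Ro 20-1724 added with compounds to block cAMP breakdown; potency means the concentration at half of the fitted maximal effect; nearly all actives have a fitted effect of over 60% in size; about a fifth of the inactives were tested at one dose only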
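Cells stably selected in G418 were plated at 2000/well, grown 16-24 hr, then given compounds in DMSO with the PDE inhibitor […] (300 uM solution added) for 30 min at 37C; cAMP was read by HTRF.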
TRPV1 potentiator – HTS Assay for Compounds that Act as Potentiators of the Vanilloid Receptor 1; Transient receptor potential cation channel subfamily V member 1 (Homo sapiens), Q8NER1; TRPV1-expressing cells, Fluo-8 calcium influx, capsaicin EC20 potentiation; host cell line not named in the record; control for the full effect not named in the record; potentiation, % at 8.33 µM; 320,000 tested, 0.02% active; AID 540277, 2011; active means potentiation above 80%; inconclusive means 30% to 80%; inactive means below 30%; further: 0% is about no effect
Target sequence (Q8NER1 whole entry, looked up): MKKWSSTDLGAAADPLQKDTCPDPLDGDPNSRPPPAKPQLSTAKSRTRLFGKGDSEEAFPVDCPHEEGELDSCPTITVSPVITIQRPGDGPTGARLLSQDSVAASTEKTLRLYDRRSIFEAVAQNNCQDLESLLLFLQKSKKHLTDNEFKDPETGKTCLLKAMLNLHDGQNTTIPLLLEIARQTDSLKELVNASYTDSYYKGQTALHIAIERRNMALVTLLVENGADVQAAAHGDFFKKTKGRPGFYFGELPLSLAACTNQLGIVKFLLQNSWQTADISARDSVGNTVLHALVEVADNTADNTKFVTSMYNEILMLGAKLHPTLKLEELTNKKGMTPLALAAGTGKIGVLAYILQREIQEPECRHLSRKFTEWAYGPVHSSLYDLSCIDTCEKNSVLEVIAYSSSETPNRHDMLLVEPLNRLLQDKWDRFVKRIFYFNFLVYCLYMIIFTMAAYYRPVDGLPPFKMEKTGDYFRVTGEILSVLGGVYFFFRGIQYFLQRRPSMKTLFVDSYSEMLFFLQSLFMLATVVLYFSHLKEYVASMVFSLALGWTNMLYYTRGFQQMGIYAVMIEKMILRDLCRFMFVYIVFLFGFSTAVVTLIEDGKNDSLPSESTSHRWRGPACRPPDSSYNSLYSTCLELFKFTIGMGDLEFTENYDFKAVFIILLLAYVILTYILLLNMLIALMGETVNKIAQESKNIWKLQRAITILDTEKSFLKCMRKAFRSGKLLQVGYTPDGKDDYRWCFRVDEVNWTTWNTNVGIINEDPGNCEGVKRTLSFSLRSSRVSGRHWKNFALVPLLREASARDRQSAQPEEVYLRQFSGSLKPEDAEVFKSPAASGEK
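Fluo-8 calcium influx in TRPV1-expressing cells, kinetic read (ex 480/em 520 nm). Compound added and read 3 min for agonist activity, followed by capsaicin at EC20 final and 2 min further read for enhancement.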
An asterisk follows results filed as active; [ ] = another dose, or the depositor's remark.

Results for Cc1cccc(/C(N)=N/OC(=O)COc2ccc(Cl)cc2)c1 ?
gsp antagonist: -10.7%; Sfp inh: 3.6%; ClpP mod: -4.2%; Menin-MLL FL inh: -0.5; gsp ag: -4.3%; TRPV1 potentiator: 9.8

Results for COc1ccc(CCN2CCCn3c2nc2c3c(=O)n(CC(C)C)c(=O)n2C)cc1OC ?
gsp antagonist: -5.7%; Sfp inh: 7.6%; ClpP mod: -13.9%; Menin-MLL FL inh: 0.9; gsp ag: 0.4%; TRPV1 potentiator: 5.1

What do the screens show for `NC(=O)c1ccc(NC(=O)COC(=O)C2CC(=O)N(Cc3ccccc3)C2)cc1` (stereo not drawn)?
CtBP-E1A inh: 1.0; gsp antagonist: 6.8%; Sfp inh: 16.6%; ClpP mod: -0.9%; Menin-MLL FL inh: -0.1; gsp ag: 19.7%; TRPV1 potentiator: -1.9

Results for Cc1cccc2sc(NC(=O)CSCc3ccccc3)nc12 ?
CtBP-E1A inh: 6.4; gsp antagonist: -12.0%; Sfp inh: 3.8%; ClpP mod: 1.2%; Menin-MLL FL inh: -1.3; gsp ag: 5.1%; TRPV1 potentiator: -12.8

How did Cc1nn(C)c(C)c1C1Nc2ccccc2C(=O)N1O (stereo not drawn) do in these assays?
CtBP-E1A inh: 9.4; gsp antagonist: 4.1%; Sfp inh: -3.1%; ClpP mod: -2.7%; Menin-MLL FL inh: 2.5; gsp ag: 10.8%; TRPV1 potentiator: 12.0

How did O=C(CSC1=Nc2ccccc2C2CC=NN12)NCc1ccco1 (stereo not drawn) do in these assays?
CtBP-E1A inh: -8.9; gsp antagonist: 11.2%; gsp ag: inconclusive

What do the screens show for `CN(Cc1cccc(F)c1)C(=O)C1CC(=O)N(c2ccc3c(c2)OCCO3)C1` (stereo not drawn)?
CtBP-E1A inh: -20.6; gsp antagonist: 3.1%; ClpP mod: -3.0%; gsp ag: 22.0%

Results for COc1cccc(-c2cc(C(=O)Nc3ccc4c(c3)OCO4)no2)c1 ?
CtBP-E1A inh: 17.6; gsp antagonist: -7.8%; Sfp inh: 4.4%; ClpP mod: -3.9%; Menin-MLL FL inh: -0.7; gsp ag: -2.6%[15.4 µM]; TRPV1 potentiator: -15.5

How did CCc1ccc(NC(=O)C(C)OC(=O)Cn2[nH]c(=O)c3ccccc3c2=O)cc1 (stereo not drawn) do in these assays?
CtBP-E1A inh: -1.8; ClpP mod: -7.8%; gsp ag: -4.8%

What do the screens show for `Cc1nc2ccccc2nc1OCC(=O)NCC(F)(F)F`?
CtBP-E1A inh: -16.1; gsp antagonist: 2.5%; Sfp inh: -4.5%; ClpP mod: inconclusive; Menin-MLL FL inh: 3.3; gsp ag: -14.0%; TRPV1 potentiator: 3.2

What do the screens show for `COc1ccccc1CNC(=O)c1cc(S(=O)(=O)N2CCOCC2)cn1C`?
CtBP-E1A inh: 5.5; gsp antagonist: 0.8%; Sfp inh: -8.0%; ClpP mod: -0.2%; Menin-MLL FL inh: -6.7; gsp ag: 13.8%; TRPV1 potentiator: 29.6

What do the screens show for `COc1ccc(OC)c(C2/C(=C(/O)c3ccc(C)cc3)C(=O)C(=O)N2Cc2ccco2)c1` (stereo not drawn)?
CtBP-E1A inh: 6.8; gsp antagonist: -3.2%; Sfp inh: 3.0%; Menin-MLL FL inh: 5.2; gsp ag: 1.0%[15.4 µM]; TRPV1 potentiator: 3.4

What do the screens show for `Cc1cccn2c(=O)c(/C=C(\C#N)C(=O)NCc3ccco3)c(N3CCCCCC3)nc12`?
gsp antagonist: -10.2%; Sfp inh: -5.4%; ClpP mod: -5.4%; Menin-MLL FL inh: 3.8; gsp ag: 15.3%; TRPV1 potentiator: 4.1

How did COC(=O)C1=C[C@@H](C(=O)OC)[C@@H]2C3=C(C(=O)C2(C)C)[C@H](c2ccccc2)[C@@H]2C(=O)N(C)C(=O)[C@@H]2[C@@H]3C1 do in these assays?
CtBP-E1A inh: 5.8; gsp antagonist: 6.3%; Sfp inh: 12.3%; ClpP mod: 0.4%; Menin-MLL FL inh: inconclusive; gsp ag: inconclusive

Results for CCOc1ccc(NC(=O)CN(C)C(=O)C2CCCC2)cc1OCC ?
CtBP-E1A inh: -2.1; gsp antagonist: 6.9%; Sfp inh: 12.4%; ClpP mod: 0.3%; Menin-MLL FL inh: -1.1; gsp ag: 14.1%; TRPV1 potentiator: -5.0

What do the screens show for `CCCCc1cc(=O)oc2c(C)c(OCC(=O)NCC3CCC(C(=O)O)CC3)ccc12` (stereo not drawn)?
CtBP-E1A inh: 0.0; gsp antagonist: inconclusive; Sfp inh: 9.4%; ClpP mod: 4.8%; Menin-MLL FL inh: 0.2; TRPV1 potentiator: 4.9

How did CN1CCN(/N=C/c2nc(-c3ccc(Cl)cc3)n3ccccc23)CC1 do in these assays?
CtBP-E1A inh: -9.8; gsp antagonist: -15.8%; Sfp inh: 12.8%; ClpP mod: -2.9%; Menin-MLL FL inh: -0.1; gsp ag: -16.5%; TRPV1 potentiator: 10.7

Results for CC1CCCN(C(=O)C(Cc2ccccc2)n2cccc2)C1 (stereo not drawn) ?
CtBP-E1A inh: -15.7; gsp antagonist: 2.3%; Sfp inh: 5.9%; ClpP mod: -2.5%; Menin-MLL FL inh: 6.3; gsp ag: -120.8%[inhibitor]

What do the screens show for `CCN(CC)S(=O)(=O)c1cc(NS(=O)(=O)c2ccccc2)ccc1C`?
CtBP-E1A inh: 3.0; gsp antagonist: -8.4%; Sfp inh: 5.5%; ClpP mod: -1.6%; Menin-MLL FL inh: 4.6; gsp ag: -94.4%[inhibitor]; TRPV1 potentiator: -6.8

What do the screens show for `COc1ccccc1-n1cnnc1SCC(=O)NCC1CCCO1` (stereo not drawn)?
CtBP-E1A inh: -5.2; gsp antagonist: 14.4%; Sfp inh: -16.3%; Menin-MLL FL inh: -1.6; gsp ag: 8.2%; TRPV1 potentiator: -8.2

Results for CC(C)c1ccccc1NC(=O)CC1(CC(=O)O)CCCC1 ?
CtBP-E1A inh: -15.7; gsp antagonist: -7.9%; Sfp inh: 4.8%; Menin-MLL FL inh: 1.2; gsp ag: -1.7%[15.4 µM]; TRPV1 potentiator: 9.5

Results for COc1ccc(NC(=O)C2CCN(S(=O)(=O)c3c(C)nn(C)c3C)CC2)cc1 ?
CtBP-E1A inh: -1.4; gsp antagonist: 2.5%; Sfp inh: 8.3%; Menin-MLL FL inh: -1.8; gsp ag: -14.3%; TRPV1 potentiator: -27.8

How did c1ccc(-c2nc3nonc3c3nc4ccccc4n23)cc1 do in these assays?
CtBP-E1A inh: 3.5; gsp antagonist: 1.5%; Sfp inh: 5.2%; ClpP mod: -8.0%; Menin-MLL FL inh: -3.7; gsp ag: 2.6%; TRPV1 potentiator: 7.7

Results for CCOC(=O)C1=C(COC(=O)CCOc2ccccc2C)NC(=O)NC1C (stereo not drawn) ?
CtBP-E1A inh: -27.5; gsp antagonist: 12.1%; ClpP mod: -2.9%; gsp ag: 3.6%; TRPV1 potentiator: 2.0

What do the screens show for `CCCCOc1c(Cl)cc(C(=O)N2CCN(CC(=O)N3CCCC3)CC2)cc1OCC`?
CtBP-E1A inh: -15.1; gsp antagonist: -3.8%; ClpP mod: -7.0%; gsp ag: 1.9%; TRPV1 potentiator: -25.8

How did CC(=O)C1=C(O)C(=O)N(Cc2ccccc2)C1c1ccc([N+](=O)[O-])cc1 (stereo not drawn) do in these assays?
Sfp inh: 7.2%; Menin-MLL FL inh: 0.0; TRPV1 potentiator: 2.3

How did COc1ccccc1CNC(=O)CN1C(=O)NC(Cc2ccccc2)(c2ccccc2)C1=O (stereo not drawn) do in these assays?
CtBP-E1A inh: -2.1; gsp antagonist: -3.7%; ClpP mod: -3.0%; gsp ag: 22.4%[15.4 µM]

Results for Cc1cc(Cl)c(S(=O)(=O)NC(C(=O)O)c2ccccc2)cc1OCC(N)=O (stereo not drawn) ?
CtBP-E1A inh: -2.4; gsp antagonist: 5.8%; Sfp inh: 13.2%; ClpP mod: -2.3%; Menin-MLL FL inh: 1.0; gsp ag: 7.8%; TRPV1 potentiator: 17.8

How did COc1ccc(/C(=C/c2ccc(OC(F)F)c(OC)c2)C(=O)O)cc1OC do in these assays?
CtBP-E1A inh: -23.6; gsp antagonist: -9.1%; Sfp inh: 1.0%; ClpP mod: -2.6%; Menin-MLL FL inh: -2.0; gsp ag: 11.8%; TRPV1 potentiator: inconclusive

What do the screens show for `Nc1nc(-c2cccs2)cs1`?
CtBP-E1A inh: 2.4; gsp antagonist: -17.2%; Sfp inh: -11.5%; ClpP mod: -1.2%; Menin-MLL FL inh: 0.3; gsp ag: 20.8%; TRPV1 potentiator: -2.4

Results for CC(=O)c1ccccc1C(=O)N1CCC(n2nccc2NC(=O)C2CC2)CC1 ?
CtBP-E1A inh: 11.7; gsp antagonist: 11.3%; Sfp inh: 19.9%; ClpP mod: 0.2%; gsp ag: 22.4%; TRPV1 potentiator: 4.7

What do the screens show for `COC(=O)[C@H](Cc1ccccc1)NC(=O)Cn1cnc2c(OCc3ccccc3)ncnc21`?
CtBP-E1A inh: 3.9; gsp antagonist: 7.5%; ClpP mod: 0.9%

What do the screens show for `O=C(Cc1ccccc1)c1c[nH]c(C(=O)NCCCN2CCOCC2)c1`?
CtBP-E1A inh: 0.0; gsp antagonist: 5.8%; Sfp inh: 6.7%; Menin-MLL FL inh: -0.7; gsp ag: -21.6%[15.4 µM]; TRPV1 potentiator: inconclusive

Results for CCSc1nnc(Nc2ccc(C)cc2)s1 ?
CtBP-E1A inh: -2.4; gsp antagonist: -6.5%; Sfp inh: -9.5%; ClpP mod: -1.0%; Menin-MLL FL inh: -1.4; gsp ag: inconclusive; TRPV1 potentiator: -21.4
